Bioassay records: PubChem, National Center for Advancing Translational Sciences (NCATS)
NS1 function inh: inhibitors of influenza NS1 protein function; S. cerevisiae slowed by influenza A NS1, growth recovery by OD600; Potency, µM (titrated, usually from 46.1 µM), for the others: at the top dose activity, positive = more growth; 270,000 tested, 0.4% active; active means well fitted rising curve with a large enough effect; inconclusive means small, poorly fitted or top-dose-only effect; inactive means no such curve, though single readings can be large or run the other way; note: nearly all actives have a fitted effect of over 50% in size
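Growth recovery, yeast-based: influenza A NS1 expressed in S. cerevisiae causes slow growth, and suppressors are detected by OD600. The parent strain without NS1 is used as positive control.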
Cruzain Triton: blocks cruzain activity in presence of Triton detergent; Potency, µM, for inactives: max response, negative = inhibition, actives largely listed as inhibitors; 200,000 tested, 0.43% active; purified cruzain, Z-FR-AMC fluorescence, 0.01% Triton; P25779;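 note: plate controls were neutral wells for no effect and buffer without enzyme for full effect; nearly all actives have a fitted effect of over 40% in size; top concentration of the series not given in the record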
Target sequence (P25779 123-467 limits assumed): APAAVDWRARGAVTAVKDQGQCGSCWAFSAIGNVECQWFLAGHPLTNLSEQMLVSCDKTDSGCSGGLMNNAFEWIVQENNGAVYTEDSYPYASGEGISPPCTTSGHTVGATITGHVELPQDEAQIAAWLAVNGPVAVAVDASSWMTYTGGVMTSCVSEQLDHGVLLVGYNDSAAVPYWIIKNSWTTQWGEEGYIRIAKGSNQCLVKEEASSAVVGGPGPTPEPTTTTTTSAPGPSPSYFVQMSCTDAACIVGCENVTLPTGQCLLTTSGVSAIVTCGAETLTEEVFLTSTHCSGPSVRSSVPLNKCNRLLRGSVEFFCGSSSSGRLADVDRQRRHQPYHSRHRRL
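Cruzain (1.5 nM) preincubated 15 min at RT with compound in 100 mM sodium acetate pH 5.5, 5 mM DTT, 0.01% Triton X-100. Reaction started with 2 uM Z-FR-AMC; AMC fluorescence (ex 360/em 450 nm) change over 60 s gave rate.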
2A StopGo: FMDV 2A StopGo reporter, luciferase signal | 410,000 tested, 1.2% active | human cells with a luciferase reporter of 2A StopGo recoding; control for the full effect not named in the record | AID 1159524 | Potency, µM (top dose mostly 57.9 µM), inactives show at the highest dose signal change, negative = less light; active = well fitted falling curve with a large enough effect; inconclusive = small, poorly fitted or top-dose-only effect; inactive = no such curve, though single readings can be large or run the other way; tested in HEK293T cells; note: % is set by controls: 0 for no effect and ±100 for the full control effect; nearly all actives have a fitted effect of over 45% in size; luciferase light after 4 h
Cruzain noTriton: inhibitors of Trypanosoma cruzi cruzain without detergent | P25779 | purified cruzain, Z-FR-AMC fluorescence, no detergent | Potency, µM, without a hit: max response, negative = inhibition, actives largely listed as inhibitors | 200,000 tested, 2.3% active;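 note: plate controls were enzyme without inhibitor for no effect and buffer without enzyme for full effect; nearly all actives have a fitted effect of over 40% in size; top concentration of the series not given in the record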
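Detergent-free condition (0.00005% Triton X-100) in acetate buffer pH 5.5 with DTT. 1.5 nM enzyme and compound were pre-mixed 15 min, then 2 uM Z-FR-AMC substrate added; reaction progress from fluorescence change between first and third reads (60 s).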
RE007 growth inh: less growth of the S. pombe RE007 Vpr strain | S. pombe RE007 Vpr strain, BacTiter-Glo ATP luminescence, 24 h; control for the full effect not named in the record | Potency, µM (top dose mostly 92.2 µM), for inactives: top-dose activity change, negative = less growth | 360,000 tested, 0.21% active; active = well fitted falling curve with a large enough effect; inconclusive = small, poorly fitted or top-dose-only effect; inactive = no such curve, though single readings can be large or run the other way;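 note: % is set by controls: 0 for no effect and ±100 for the full control effect; nearly all actives have a fitted effect of over 50% in size; the assay follows cell death caused by Vpr and the record does not say whether a fall means rescue or toxicity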
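Fission yeast strain RE007, carrying one chromosomally integrated HIV-1 vpr copy, was seeded at OD 0.01 in PMG+AL medium with 23 nL pinned compound. After 24 h at 30 °C and 99% humidity, viability was read by BacTiter-Glo luminescence.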
SARS PLpro yeast: SARS-CoV PLP inhibition in yeast. S. cerevisiae expressing SARS-CoV PLpro, growth rescue; control for the full effect not named in the record. 330,000 tested, 0.19% active. AID 485353. Potency, µM (highest dose often 32.9 µM), inactives show at the top dose activity, positive = growth rescue; active means well fitted rising curve with a large enough effect; inconclusive means small, poorly fitted or top-dose-only effect; inactive means no such curve, though single readings can be large or run the other way; note: 0% is about no effect; nearly all actives have a fitted effect of over 55% in size; growth read by luminescence after 48 h
MARV entry inh: inhibitors of Marburg virus binding or cell entry. Potency, µM (top dose mostly 37.8 µM), for inactives: at the top dose activity change, negative = inhibition, hits mostly inhibitors. Marburg virus pseudotyped entry inhibition, cell reporter; control for the full effect not named in the record; about a third of the inactives were read at about 46 µM. 300,000 tested, 1.8% active; active = well fitted inhibition curve with a large enough effect; inconclusive = small, poorly fitted or top-dose-only effect, or effect the other way; inactive = flat fitted curve, though single readings scatter; tested in HEK293 cells; about a fifth of its hits are not listed in these tables; note: % is set by controls: 0 for no effect and ±100 for the full control effect; luciferase read-out
Lassa entry inh: Lassa virus entry inhibition; Lassa virus pseudotype entry inhibition, cell reporter; control for the full effect not named in the record; Potency, µM (series often up to 37.9 µM), inactives show at the highest dose activity change, negative = inhibition, actives largely listed as inhibitors; 300,000 tested, 1.2% active; AID 540256; active means well fitted inhibition curve with a large enough effect; inconclusive means small, poorly fitted or top-dose-only effect, or effect the other way; inactive means flat fitted curve, though single readings scatter; tested in HEK293 cells; note: % is set by controls: 0 for no effect and ±100 for the full control effect; nearly all actives have a fitted effect of over 50% in size; luciferase read-out
* hit, by the source's call; ? = inconclusive; / = no result given; [ ] = another dose, or the depositor's remark. Unless noted, calls come from the whole dose curve; as a rule, active = well fitted curve in the direction sought with a large enough effect; inconclusive = small, poorly fitted or top-dose-only effect, or another doubt; inactive = no such curve, though single readings can be large; an effect the other way counts as inactive or inconclusive. Potency is the fitted concentration of half-maximal effect.

SMILES,NS1 function inh,Cruzain Triton,2A StopGo,Cruzain noTriton,RE007 growth inh,SARS PLpro yeast,MARV entry inh,Lassa entry inh
COc1ccc(/C=N/NC(=O)c2ccc(N(C)S(=O)(=O)c3ccccc3)cc2)cc1OC,10%,-11%,0%,?,8%,5%,2%[46.1 µM],15%
Cc1nn(C(C)C(=O)NC2CCCCC2)c(=O)c2c1sc1ccccc12 (stereo not given),/,-8.8%,-7%,6%,/,/,?,?
Cc1cc(C)n(-c2ccc(C(=O)OCC(=O)NCc3ccco3)cc2)n1,-10%,-1.8%,1%,3%,5%,0%,23%,7%
O=C(COC(=O)Cc1ccc(Br)cc1)NCc1cccs1,/,/,-13%,/,-7%,-1%,-25%,-30%
c1cncc(-c2nnc(-c3ccco3)o2)c1,-1%,-3.0%,61%[activator],-12%,-2%,-7%,17%,18%
Cc1ccc(OCC(=O)Nc2ccc(S(=O)(=O)N3CCCCC3)cc2)c([N+](=O)[O-])n1,-4%,/,-24%,/,0%,-2%,-12%[46.1 µM],-4%[46.1 µM]
c1ccc(-n2cc(CN3CCC(N4CCOCC4)CC3)c(-c3ccc4c(c3)OCO4)n2)cc1,1%,/,-10%,/,-6%,0%,?,?
Cc1cc(NC(=O)CSc2nnc(C)o2)no1,-3%,/,-12%,/,14%,1%,2%[46.1 µM],?
O=C(Nc1ccc(F)cc1F)c1ccc(S(=O)(=O)N2CCCCC2)cc1,3%,/,-20%,/,5%,1%,4%,?
Cc1ccc(C(=O)Nc2nnc(-c3ccc(C(C)(C)C)cc3)s2)cc1,6%,9.1%,9%,8%,8%,-13%,-2%[46.1 µM],3%
COc1ccc(Cl)cc1C(=O)NC(C)C,/,/,-5%,/,-11%,0%,12%[46.1 µM],-3%
COc1cccc(COC(=O)C2CCN(S(=O)(=O)c3ccc(Cl)cc3)CC2)c1OC,/,/,-19%,/,-2%,/,?,2%
CCOC(=O)c1cccc(NC(=O)Cn2cnc3c2c(=O)n(C)c(=O)n3C)c1,-9%,-1.7%,-25%,-3%,4%,9%,6%,16%
O=C(CSc1nnc(COc2ccccc2)n1Cc1ccco1)NCc1ccco1,-6%,-6.2%,/,12%,6%,-1%,16%,3%
CCCN(CC1CCCO1)C(=O)c1cc(COc2ccc(F)cc2F)on1 (stereo not given),-25%,/,5%,/,5%,-1%,-13%,?
COc1ccc(/C(N)=N/OC(=O)c2cc(-c3ccccc3)nc3ccccc23)cc1,1%,-1.8%,-6%,20µM*,-14%,-15%,-24%,-5%
Cc1ccc(NC2=C(C(=O)c3ccccc3)N(C)S(=O)(=O)c3ccccc32)cc1,?,-4.7%,-2%,20µM*,-27%,-7%,?,-29%
Cc1cc(C)c(NC(=O)CSc2ncc3c(n2)-c2cc(Cl)ccc2N(C)S3(=O)=O)c(C)c1,/,5.3%,-25%,-1%,/,/,/,18%[46.1 µM]
COc1ccc(-c2ncn(CCC#N)c2[N+](=O)[O-])cc1,/,/,10%,/,-26%,1%,-8%[46.1 µM],6%[46.1 µM]
CC(C)c1cc(O)c(-c2ccccc2)c(=O)n1-c1ccc(Cl)cc1,2%,/,-5%,/,-6%,0%,-6%[46.1 µM],/
O=C(CN1CCN(S(=O)(=O)c2ccc(Cl)cc2)CC1)NC1CCCC1,6%,/,-9%,/,4%,-2%,/,/
Cn1c(C(=O)NC2CCCCC2)cc2c(=O)n3ccccc3nc21,-9%,/,11%,/,-14%,-8%,/,/
COc1ccc2nc(NC(=O)C3CCN(C(=O)c4ccco4)CC3)sc2c1,-14%,/,11%,/,-10%,-1%,-17%[46.1 µM],-27%
O=C(N/N=C/c1ccc(F)c(F)c1)c1cc2c(s1)-c1ccccc1CC2,10%,?,0%,?,-1%,-2%,-3%,6%
COc1ccc(-c2nnc(SC(C(=O)c3c[nH]c4ccccc34)c3ccccc3)n2N)cc1OC (stereo not given),20µM*,-5.6%,?,14%,17%,11%,?,?
Cc1cc(N)n(-c2ccc([N+](=O)[O-])cc2)n1,/,/,0%,/,-2%,7%,-15%[46.1 µM],/
CCn1nc(C)cc1C(=O)n1nc(C)c(Sc2ncccn2)c1C,1%,/,?,/,-7%,1%,?,-15%
Cc1cc(NS(=O)(=O)c2ccc(NC(=O)Cc3ccc([N+](=O)[O-])cc3)cc2)no1,9%,/,-12%,/,-2%,2%,-5%,-9%
CCCNCCC(c1ccco1)c1ccccc1OC (stereo not given),27%,4.9%,-5%,-20%,-8%,3%,?,?
Cc1cccc(OCCSc2ncnc3nc[nH]c23)c1,-2%,-0.7%,-21%,-2%,-2%,-18%,-17%,2%
CC(C)CNC(=O)c1ccccc1NC(=O)CCSc1ccccc1,-4%,0.4%,-3%,18%,-16%,-8%,9%,-9%
CC(=O)Nc1cccc(OCc2cccc([N+](=O)[O-])c2)c1,/,/,9%,/,-6%,/,12%,15%[46.1 µM]
COC(=O)C1=C(N)Oc2cc(C)[nH]c(=O)c2C1c1ccccc1OC (stereo not given),-3%,/,-28%,/,16%,0%,-7%,1%
CCN1CCN(CCOc2ccccc2-c2ccccc2)CC1,-1%,/,-17%,/,2%,0%,/,/
CCc1c(C)sc2c1CCN(C(=O)Nc1cc(Cl)c(OC)cc1OC)C2c1ccccc1 (stereo not given),/,-0.6%,-12%,6.3µM*,/,/,/,-1%[46.1 µM]
Cc1cc(C(F)(F)F)nc(SCCN2CCOCC2)c1C#N,1%,/,-14%,/,-3%,-1%,2%[46.1 µM],-12%
CN1CCCC(OC(=O)c2ccccc2Br)C1 (stereo not given),6%,/,13%,/,-2%,-1%,/,/
CCN(CC(=O)Nc1cc(S(=O)(=O)N2CCCCC2)ccc1Cl)Cc1ccccc1,/,/,-28%,/,9%,-2%,?,?
COc1cccc(C2C=C(c3ccc(C)c(C)c3)Nc3nnnn32)c1OC (stereo not given),/,0.2%,30%[activator],-5%,/,/,/,?
Cc1ccc(C(=O)NCC(c2ccco2)N2CCc3ccccc32)cc1 (stereo not given),/,/,-17%,/,-3%,-1%,-13%,5%
CC1CC(C)CN(c2ncc3c(n2)CC(c2ccc(Cl)cc2)CC3=O)C1 (stereo not given),-146%,-5.0%,11%,-15%,20%,0%,10%,-17%
CCN(C(=O)CSc1nnc(-c2cccs2)n1N)c1c(N)n(Cc2ccccc2)c(=O)[nH]c1=O,/,/,-8%,/,-1%,10%,?,-8%
CCOC(=O)c1c(C)[nH]c(C)c1S(=O)(=O)N1CCC(C(=O)Nc2ccccn2)CC1,/,2.3%,18%,0%,/,/,/,-2%[46.1 µM]
CS(=O)(=O)N(CC(=O)Nc1ccccc1F)C1CCCCC1,11%,/,-5%,/,9%,1%,/,/
COc1ccc(CN2CCNC(=O)C2CC(=O)NCCCC2CCCC2)c(C)c1C (stereo not given),17%,/,-2%,/,-13%,4%,7%,-11%
C=CCNC(=O)CN1CCN(C(c2ccccc2)c2ccccc2)CC1,-9%,/,-15%,/,-15%,5%,/,/
CCNC(=S)NNC(=O)c1cc(C)nc2ccccc12,9%,-1.7%,-18%,1%,-1%,-17%,12%,2%
CC(C)[C@H](NC(=O)c1ccccc1F)C(=O)OCCN1C(=O)c2ccccc2C1=O,/,/,-25%,/,4%,-9%,4%,-4%
CCn1c(=O)c([N+](=O)[O-])c(NCCc2ccc(OC)c(OC)c2)c2ccccc21,-8%,-6.5%,22µM*,0%,-21%,-1%,?,?
CC1CC(C)CN(CCCNC(=O)Cn2ncn3cccc3c2=O)C1 (stereo not given),3%,-2.9%,12%,1%,21%,11%,7%,-24%
CC(=O)N(C)c1ccc(NC(=O)c2ccccc2C(=O)O)cc1,0%,0.1%,-16%,-2%,-6%,4%,1%,3%
O=C(O)C1(Nc2ccc(Cl)cc2)CCCC1,2%,4.1%,30%,4%,-7%,/,0%[46.1 µM],-4%[46.1 µM]
CC(C)Cc1ccc(S(=O)(=O)N2CCOCC2)cc1,-79%,3.6%,-21%,-1%,3%,-16%,20%,-4%
CC(C)(C)S(=O)(=O)/C(C#N)=N/Nc1ccc(S(N)(=O)=O)cc1,/,/,-6%,/,11%,1%,?,?
COc1ccc(NC(=O)C(=O)NCCc2csc(-c3ccc(Cl)cc3)n2)cc1,/,-1.0%,-5%,3%,/,/,/,0%[46.1 µM]
CC(C)[C@@H](C(=O)NC1CC1)N1C(=O)N2CCc3c([nH]c4ccccc34)[C@@]2(C)C1=O,6%,/,-27%,/,14%,7%,/,/
Cc1ccc(OCc2nnc(SCC(=O)N3C(C)CCCC3C)o2)cc1 (stereo not given),-9%,/,11%,/,-4%,0%,9%[46.1 µM],0%
COc1ccc(-n2cnc3cc(C(=O)NCC4CCCO4)ccc32)cc1 (stereo not given),1%,/,1%,/,-4%,6%,5%[46.1 µM],-25%[46.1 µM]
COc1ccc(CN2C(=O)c3cccc4cccc(c34)C2=O)cc1,7%,/,36%[activator],/,8%,2%,-28%,2%
OCCC1CN(Cc2cccc3nonc23)CCN1C1CCCCC1 (stereo not given),-3%,/,-14%,/,1%,1%,?,22%[46.1 µM]

(next part)
SMILES,NS1 function inh,Cruzain Triton,2A StopGo,Cruzain noTriton,RE007 growth inh,SARS PLpro yeast,MARV entry inh,Lassa entry inh
CCC(Oc1ccccc1F)C(=O)Nc1c(C(=O)c2ccccc2)oc2ccccc12 (stereo not given),/,-3.0%,-23%,6%,/,/,?,7%[46.1 µM]
O=C(c1noc2c1CCCC2)N1CCN(c2ccccc2)CC1,-14%,2.8%,10%,1%,?,2%,11%,?
Cc1cc(NC(=O)COC(=O)COc2ccc(Cl)cc2C)c([N+](=O)[O-])cc1C,-8%,-7.6%,0%,-20%,11%,6%,18%,?
CCOC(=O)c1ccc(NC(=O)c2nsc3ccccc23)cc1,/,-13%,-12%,-3%,/,/,?,?
CCC1CCCCN1S(=O)(=O)c1cc2c(cc1C)NC(=O)CO2 (stereo not given),/,-15%,-7%,2%,/,/,/,-5%[46.1 µM]
Cc1cccc(NC(=O)c2c(C)oc3ncnc(N4CCCCC4)c23)c1C,/,-2.5%,-6%,-3%,/,/,/,0%[46.1 µM]
